Tgondii IFNg = blocks Toxoplasma gondii growth in the presence of IFN-gamma; Toxoplasma gondii growth in IFN-gamma-treated host cells; stronger effect = lower value; reference of the scale not given here; activity change, negative = inhibition, %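 (about 20 µM by stock and volumes)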; hit rate 3.8% among 69,000;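 active = below -70%; inconclusive = fit judged invalid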;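 note: host cells are HeLa cells infected with Toxoplasma gondii; parasite growth read as luciferase light; one replicate is shown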
Active calls of the source: *; i = inactive; ? = inconclusive; & = joins results of further samples.

SMILES	Tgondii IFNg
CC(C)N(CCCNC(=O)Nc1ccc(C(C)(C)C)cc1)C[C@H]1O[C@@H](n2ccc3c(N)ncnc32)[C@H](O)[C@@H]1O	7
CC(C)(Oc1ccc(Cl)cc1)C(=O)N1CSCC1C(=O)O (stereo not given)	10
Cn1cc(CCNC(=O)c2cn[nH]c2-c2ccccc2)c2cc(Cl)ccc21	16
Cc1nc(-c2ccccc2)sc1CCNC(=O)C1CCCCC1	i
COc1ccc(NC(=O)c2c(O)c3ccccc3n(-c3ccccc3)c2=O)cc1	235
O=C(c1ccco1)N1CCC2OCCCC2(COCc2ccncc2)C1 (stereo not given)	8
COc1cccc(-n2cc(CNCc3c(C(=O)N(C)C)nc4ccc(Cl)cn34)cn2)c1	8
Cn1c(CCNC(=O)c2ccccc2C2CCNC2)nc2ccccc21 (stereo not given)	3
CN1CCN(C(=O)c2cc3c(c(-c4cccc(C5=CCCC5)c4)n2)[C@H](CCO)N([S@@](=O)C(C)(C)C)C3)CC1	-24
O=C(NCCNCC(O)COc1ccc(O)cc1)N1CCOCC1 (stereo not given)	28
CCn1c(=O)c(C(=O)Nc2cccc(Cl)c2C)c(O)c2ccccc21	262
CCOC(=O)c1[nH]c(C)c(CN(Cc2ccc(Cl)cc2)C(=O)c2cc3ccccc3[nH]2)c1C	60
CC1(C)NC(=O)N(Cc2ccc(NC(=O)c3cccc(Cn4cncn4)c3)cc2)C1=O	27
Cc1ccccc1CN1CC[C@H]2[C@@H](CO[C@@H]2CC(=O)N2CCCO2)C1	-13
COc1ccc(N2CCN(C(=O)c3csc(C(=O)NC4CC4)n3)CC2)cc1	-13
CCOCC1CN(C(=O)Cc2cccs2)Cc2cncn2C1 (stereo not given)	0
O=C(CCN1CCCCC1)NCC[C@H]1CC[C@H](NS(=O)(=O)c2cccc(Cl)c2)[C@@H](CO)O1	-11
CNC(=O)c1sc2ccccc2c1C1CCC(CNS(=O)(=O)c2cnn(C)c2)CC1 (stereo not given)	-11
COc1ccc2c3c(n(C)c2c1)[C@@H](CO)NCC31CN(C(=O)Nc2ccccc2F)C1	227
CCc1nc2ccccc2c(NC(=O)CN2CC(C)CC(C)C2)c1C (stereo not given)	3
COC(=O)[C@@H]1[C@@H](CO)[C@@H]2Cn3c(ccc(-c4cncnc4)c3=O)[C@@H]2N1CCC(F)(F)F	-49
CCOc1ccccc1CN(C(=O)c1cccnc1NC)C1CC1	1
Cc1cccn2c(=O)c(-c3nn[nH]n3)cnc12	2
CCc1c(C(C)=O)oc2ccc3c(C)cc(=O)oc3c12	20
CC(C)(C)c1ccc(OCC(O)CN2CCOCC2)cc1 (stereo not given)	-22
NC(=O)c1sccc1NC(=O)CSCc1ccc(Cl)cc1	0
CCS(=O)(=O)N1CC2(C1)[C@@H](c1ccccc1)[C@H](CO)N2Cc1ccc(F)cc1	-12
Cc1cc(C)nc(N2CC(n3nc(C)cc3C)C2)n1	4
CC(C)(CN1CCC(c2ccnc(-c3ccncc3)c2)C1)N1CCOCC1 (stereo not given)	-27
Cc1cc(NC(=O)CSc2nnc(-c3cccs3)o2)n(-c2ccccc2)n1	32
COc1ccc(NC(=O)N2CCC3(CC2)Nc2ccccc2-n2cccc23)c(OC)c1	i
CC(C)[C@H](CO)N1Cc2ncccc2C1=O	0
C[C@H]1CN([C@@H](C)CO)C(=O)c2cc(NC(=O)Cn3cnnn3)ccc2O[C@@H]1CN(C)Cc1ccc(C(=O)Nc2ccccc2N)cc1	11
CO[C@H]1CCN(S(=O)(=O)c2cn(C)cn2)[C@H]1Cc1cnn(C)c1	0
C=CCOC[C@@H]1CCC[C@@]12CN(C(=O)N1CCCC1)CCO2	-5
CN(C)CC(=O)N1C[C@@H]2N[C@H](C1)C2c1ccc(-c2ccccc2F)cc1 (stereo not given in full)	-47&-1
CC(C)Cc1nc(CN(C)c2ncnc3c2CCN(C(=O)C2CC2)C3)no1	-3
CN(Cc1cc(-c2ccccc2)no1)C(=O)c1ccc(CO)o1	-44
O=C(CCC1N=C2c3ccccc3N=C(SCc3cccc(F)c3)N2C1=O)NCc1cccs1 (stereo not given)	-1
CCc1nc(-c2nccn2CCC2COc3ccccc3O2)c(C)[nH]1 (stereo not given)	181
Cc1ccc(-c2cnc(-c3ccccc3)sc2=O)cc1	70
CC(=O)NC(NC(=S)N1CCCCCC1)C(Cl)(Cl)Cl (stereo not given)	-2
O=c1[nH]nc(SCc2cc(-c3c(Cl)cccc3Cl)no2)n1C1CCCCC1	-42
Cc1ccc(N(CC(O)COCc2ccco2)S(=O)(=O)c2ccc(C)cc2)cc1 (stereo not given)	-16
CCOC(=O)c1c(Nc2cccc(Cl)c2Cl)n[nH]c1C	3
O=C(NCCc1csc(-c2ccc(Cl)cc2)n1)c1ccc2c(c1)OCO2	-39
Cc1nn2c(C3CNCCO3)ccnc2c1CN1CCOCC1 (stereo not given)	20
CCOC(=O)CSc1nc(NCCc2ccc(OC)c(OC)c2)c2ccccc2n1	2
COc1cccc2c1OCCCN(C(=O)CC1COCCN1)C2 (stereo not given)	-2
CCOC(=O)[C@]12CCCN(C(=O)C3CCOCC3)C[C@@H]1CN(CCN(C)C)C2	7
COc1ccc(CC(=O)NCCc2sc(-c3ccc(Cl)cc3)nc2C)cc1	-52
c1ccc(C2CCCN(Cc3cc4n(n3)CCCNC4)CC2)cc1 (stereo not given)	-14
Cc1cc(C(=O)Nc2ccc3c(c2)C(=O)N(C)[C@@H]2CC[C@H](CC(=O)O)O[C@@H]2CO3)no1	9
CCC1C(=O)N=C(SCC(=O)NC2CCCCC2)NC1=O (stereo not given)	20
O=C1C(Cl)=C(N2CCOCC2)C(=O)N1c1ccc(Cl)c(Cl)c1	16
CCC1CCc2c(sc(NC(=O)c3cccnc3)c2C(N)=O)C1 (stereo not given)	78
Cc1nnc(-c2ccccc2-c2ccccc2CO)s1	-17
CCSc1nc(CC(=O)N[C@H]2CCCCNC2=O)cs1	1
CC(c1cccnc1)N(C)Cc1ccc(-n2ccnc2)cc1 (stereo not given)	47
COc1ccc(NC(=O)Cn2ncc3c(N4CCCC4)ncnc32)cc1	78

Other records
SMILES	Tgondii IFNg
CCOc1ccc2nc(N3CCCN(Cc4cc(OC)c5c(c4)OCO5)CC3)nc(C)c2c1	-17
Cc1ccc2c(n1)N(CC1CC1)CCN(C(=O)c1ccc[nH]1)C2	52
Cc1nc(CO[C@H]2CN(C(C)C)[C@H]3COC[C@@H]23)cs1	-31
COc1ccc2c(c1)CC(NCCCn1nc(C)nc1C)CC2 (stereo not given)	3
FC(F)(F)c1ccc(-c2nnc(COc3ccccc3Cl)o2)cc1	21
CCN1CCCCC1CNC(=O)CCC(=O)NC1CCCC1 (stereo not given)	35
COC(=O)c1cc2n(n1)CCN(C(=O)c1oc3cc(OC)ccc3c1C)C2	-4
Cc1cccc(Nc2nc(N)nc(CN3CCC(C(N)=O)CC3)n2)c1C	-29
O=C(Cc1ccc(N2CCNC2=O)cc1)N1CC(c2cccnc2)C1	-6
COCCN(C)C(=O)C1CC2(CO1)c1ccccc1CN2CC1CC1 (stereo not given)	-3
Nc1ccn(C[C@@H](CO)OCP(=O)(O)O)c(=O)n1	?
C=CCN(CC=C)C(=O)CN1CCc2[nH]cnc2C12CCCCC2	-12
Cc1ccc(C(=O)N2C[C@@H]3COC[C@@]3(Cc3nnc(C4CC4)o3)C2)o1	6
Cc1cnn(Cc2cccc(F)c2)c1NC(=O)CSc1ccncc1	4
COc1cccc(-c2nc3c(s2)CN(C(=O)Nc2ccc(Cl)cc2)CC3)c1	-92*
CCO[C@H]1CO[C@@]2(CCCN(C(=O)c3ccc4ncccc4c3)C2)C1	-10
CCN(C(=O)c1coc2ccccc12)C(C)CO (stereo not given)	-12
CC1CCN(CC2(NC(=O)c3cccn4nnnc34)CCCCC2)CC1	-4
COc1cccc(CNC2=NCCNC23CCN(S(=O)(=O)c2ccc4c(c2)CCCC4)CC3)c1	7
N#C[C@@H]1[C@H](c2ccc(-c3cncnc3)cc2)[C@@H](CO)N1C(=O)Cc1ccccc1	-11
CC1CN(C(=O)c2nc3c(n2C(C)C)CCN(Cc2ccccc2)C3)CC(C)O1 (stereo not given)	-49
COCC(=O)N1CCCC1c1nnn2cc(Nc3cccc(F)c3)ccc12 (stereo not given)	-2
C[C@@H]1CCCCO[C@@H](CN(C)CC2CC2)[C@H](C)CN([C@@H](C)CO)C(=O)c2cc(NC(=O)c3ccccc3)ccc2O1	-27
Cc1ccc(CN2CCC3(CCCN3CC3CC3)CC2)s1	0
Cc1ccc(-c2nc(C)c(CCNC(=O)C(=O)NC(C)c3ccccc3)s2)cc1 (stereo not given)	-6
O=C(Nc1ccncc1)c1cc([N+](=O)[O-])ccc1Cl	-82*
CO[C@H]1CN(C)C(=O)c2cc(NS(=O)(=O)c3ccc(Cl)cc3)ccc2OC[C@@H](C)N(C(=O)NC(C)C)C[C@@H]1C	158
COc1ccc(-n2c(=O)c(C(=O)Nc3ccc(F)c(F)c3)c(O)c3cccnc32)cc1	-25
Cc1nc(-c2ccccc2)nc2c1COCC21CCN(c2ncccn2)C1 (stereo not given)	-13
CCOc1ccc(-c2nc3c(s2)CN(S(=O)(=O)c2ccc(F)cc2F)CC3)cc1	92
Nc1nc(-c2ccc3c(c2)CCC3)cc(C(F)(F)F)n1	-26
COc1ccc(-c2nc(NCc3ccc4c(c3)OCO4)c3ccccc3n2)cc1	-43
CCCCN(CCCC)CCNC(=O)C1=C(C)C(=O)OC12CCN(CC)CC2	15
O=S(=O)(NCCCCCNS(=O)(=O)c1ccccc1)c1ccccc1	43
Cc1nc(-c2cccc(F)c2)sc1CCNC(=O)CC(C)(C)C	146
O=C(Nc1ccccc1Oc1ccc(F)cc1)c1ccc(Cn2cncn2)cc1	105
CCCc1nc(C(=O)NC2CCC(n3cnnc3)CC2)cs1 (stereo not given)	1
COc1ccccc1-c1ccc([C@H]2[C@H](CO)N3CCCCN(C(=O)c4cccnc4)C[C@@H]23)cc1	-13
COc1ccc(Cl)cc1NC(=O)Cn1ncc2c(N3CCN(c4ccccc4)CC3)ncnc21	-82*
Cc1ccc(C2c3[nH]c4ccccc4c3CCN2C(=O)c2cccc(Cl)c2)cc1 (stereo not given)	-89*
Cc1cccc(C(=O)NCCc2sc(-c3cccc(F)c3)nc2C)c1	-3
COc1cccc(C)c1NC(=O)c1cccc(CN2CC=CC2)c1	13
CC(C)(C)OC(=O)N1CCC(c2nc(-c3ccc(Cl)s3)cs2)CC1	-7
Cc1cccc(-c2cn[nH]c2C2CCN(C(=O)c3ncc[nH]3)CC2)c1	-10
CC(C)N(C)Cc1nnc2n1CCN(S(C)(=O)=O)CC2	-44
CCn1c(CC2CCN(c3nc(OC)cc(OC)n3)CC2)nn(C)c1=O	81
COCCC(=O)N1Cc2nccn2CC(COCc2cccnc2)C1 (stereo not given)	-2
CC(=O)Nc1ccc(S(=O)(=O)Nc2ccc([N+](=O)[O-])cc2)cc1	6
O=C(c1cc(-c2ccnn2C2CCCC2)n2ccccc12)N1CCC(O)CC1	-14
CCOc1ccc2nc(SCc3ccc4c(c3)OCO4)sc2c1	12
Fc1cccc(CN2CCC3(CC2)CC(OCC2CC2)CO3)c1 (stereo not given)	-36
COc1ccccc1-c1cc2c(=O)n(Cc3nc(-c4ccc(C)cc4)oc3C)ccn2n1	291
Cc1csc(C(Cc2cccs2)NC(=O)Cn2ccc(=O)[nH]c2=O)n1 (stereo not given)	42
CCNC(=O)c1cc2c(c(-c3cccc(-c4cccnc4)c3)n1)[C@@H](CCO)N(S(C)(=O)=O)C2	11
C=Cc1cccc(CN(C)CCC(=O)NC)c1	85
O=S(=O)(c1ccc(F)cc1)N1C[C@H]2[C@@H](c3ccccc31)[C@@H](CO)N2Cc1ccccc1Cl	-79*
Cc1ccc(CN2C[C@H]3COC[C@@]3(CNS(=O)(=O)C3CC3)C2)s1	-5
Cc1ccccc1S(=O)(=O)N1CC[C@@H]2[C@@H](CO)Nc3ccc(-c4ccc(F)cc4)cc3[C@@H]21	?
CN1CCN(c2ncnc3c2CCN(c2ncc(F)cn2)CC3)CC1	-6
Cc1nc(CN)cc(N2CCC(O)(c3cccc(C(F)(F)F)c3)CC2)n1	-4

Continuation.
SMILES	Tgondii IFNg
C[C@@H]1CN([C@@H](C)CO)C(=O)c2ccccc2-c2ccccc2CO[C@@H]1CN(C)Cc1cccnc1	65
COc1cccc(C(=O)Nc2cccc(C(=O)OCC(=O)Nc3cc(C)on3)c2)c1	-8
O=C1CCC2(CCCN(C(=O)NCc3ccccc3)CC2)N1 (stereo not given)	2
O=C(N1CCOCC1)N1CCC2(C1)c1ccccc1S(=O)(=O)N2Cc1ccccc1 (stereo not given)	3
COc1ccc(S(=O)(=O)NCCc2sc(-c3ccc(Cl)cc3)nc2C)cc1F	-4

Source: PubChem BioAssay (Broad Institute)

This is a subset. The share of hits here may be higher or lower than overall.
